Source: PubChem (National Center for Advancing Translational Sciences (NCATS))
Marburg entry inh – blocks Marburg virus binding to or entry into cells. Marburg virus pseudotyped entry inhibition, cell reporter; control for the full effect not named in the record; about a third of the inactives were read at about 46 µM. Potency, µM (highest dose often 37.8 µM), inactives show top-dose activity change, negative = inhibition, most hits filed as inhibitors. 1.8% of 300,000 active; active = well fitted inhibition curve with a large enough effect; inconclusive = small, poorly fitted or top-dose-only effect, or effect the other way; inactive = flat fitted curve, though single readings scatter; tested in HEK293 cells; about a fifth of its hits are not listed in these tables; further: on the % scale 0 is the no-effect control and ±100 the full control effect; luciferase read-out
SARS PLP yeast – blocks SARS-CoV papain-like protease in a yeast assay; 0.19% of 330,000 active; Potency, µM (series often up to 32.9 µM), for the others: at the highest dose activity, positive = growth rescue; S. cerevisiae expressing SARS-CoV PLpro, growth rescue; control for the full effect not named in the record; further: 0% is about no effect; nearly all actives have a fitted effect of over 55% in size; growth read by luminescence after 48 h
Cruzain inh noDet – inhibitors of Trypanosoma cruzi cruzain without detergent; purified cruzain, Z-FR-AMC fluorescence, no detergent; Potency, µM, without a hit: max response, negative = inhibition, usual class: inhibitors; P25779; AID 1476; 2.3% of 200,000 active; active means well fitted curve in the direction sought with a large enough effect; inconclusive means small, poorly fitted or top-dose-only effect, or another doubt; inactive means no such curve, though single readings can be large; an effect the other way counts as inactive or inconclusive;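 further: plate controls were enzyme without inhibitor for no effect and buffer without enzyme for full effect; nearly all actives have a fitted effect of over 40% in size; top concentration of the series not given in the record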
Target sequence (P25779 123-467 limits assumed): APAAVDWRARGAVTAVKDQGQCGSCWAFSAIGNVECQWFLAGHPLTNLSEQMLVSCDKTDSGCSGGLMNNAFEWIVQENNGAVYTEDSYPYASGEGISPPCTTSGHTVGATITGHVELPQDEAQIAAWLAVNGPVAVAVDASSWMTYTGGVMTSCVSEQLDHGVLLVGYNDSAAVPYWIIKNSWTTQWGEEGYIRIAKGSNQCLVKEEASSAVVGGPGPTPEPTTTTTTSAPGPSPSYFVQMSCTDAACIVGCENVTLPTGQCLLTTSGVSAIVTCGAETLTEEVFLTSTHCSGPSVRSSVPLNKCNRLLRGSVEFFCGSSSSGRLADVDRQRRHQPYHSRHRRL
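Purified cruzain at 1.5 nM, pre-incubated 15 min with compound at room temperature in 100 mM sodium acetate pH 5.5, 5 mM DTT, 0.00005% Triton X-100. Reaction started with 2 uM Z-FR-AMC; AMC fluorescence increase over 60 s gives rate.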
NS1 inh – blocks influenza NS1 protein function. S. cerevisiae slowed by influenza A NS1, growth recovery by OD600. Potency, µM (titrated, usually from 46.1 µM), for inactives: at the top dose activity, positive = more growth. 0.4% of 270,000 active. AID 2326; further: actives are rising curves; nearly all actives have a fitted effect of over 50% in size
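In this qHTS, NS1 from influenza A is expressed in budding yeast, where it slows growth. Cells are switched from glucose to 2% galactose medium (pH 6.0, -URA), treated with compound, and growth recovery is read at OD600.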
Lassa entry inh – blocks Lassa virus binding to or entry into cells; Lassa virus pseudotype entry inhibition, cell reporter; control for the full effect not named in the record; Potency, µM (titrated, usually from 37.9 µM), inactives show at the top dose activity change, negative = inhibition, actives largely listed as inhibitors; 1.2% of 300,000 active; AID 540256; active means well fitted inhibition curve with a large enough effect; inconclusive means small, poorly fitted or top-dose-only effect, or effect the other way; inactive means flat fitted curve, though single readings scatter; tested in HEK293 cells; further: on the % scale 0 is the no-effect control and ±100 the full control effect; nearly all actives have a fitted effect of over 50% in size; luciferase read-out
RE007 growth inh – less growth of the S. pombe RE007 Vpr strain | Potency, µM (doses to about 92.2 µM), without a hit: at the highest dose activity change, negative = less growth | AID 651644 | 0.21% of 360,000 active | S. pombe RE007 Vpr strain, BacTiter-Glo ATP luminescence, 24 h; control for the full effect not named in the record; active = well fitted falling curve with a large enough effect; inconclusive = small, poorly fitted or top-dose-only effect; inactive = no such curve, though single readings can be large or run the other way;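 further: on the % scale 0 is the no-effect control and ±100 the full control effect; nearly all actives have a fitted effect of over 50% in size; the assay follows cell death caused by Vpr and the record does not say whether a fall means rescue or toxicity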
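Fission yeast strain RE007, carrying one chromosomally integrated HIV-1 vpr copy, was seeded at OD 0.01 in PMG+AL medium with 23 nL pinned compound. After 24 h at 30 °C and 99% humidity, viability was read by BacTiter-Glo luminescence.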
StopGo reporter – FMDV 2A StopGo reporter, luciferase signal; human cells with a luciferase reporter of 2A StopGo recoding; control for the full effect not named in the record; Potency, µM (doses to about 57.9 µM), for the others: at the highest dose signal change, negative = less light; 1.2% of 410,000 active; AID 1159524; active = well fitted falling curve with a large enough effect; inconclusive = small, poorly fitted or top-dose-only effect; inactive = no such curve, though single readings can be large or run the other way; tested in HEK293T cells; further: on the % scale 0 is the no-effect control and ±100 the full control effect; nearly all actives have a fitted effect of over 45% in size; luciferase light after 4 h
Cruzain inh Det – cruzain (T. cruzi) inhibition with detergent; P25779; purified cruzain, Z-FR-AMC fluorescence, 0.01% Triton; Potency, µM, for inactives: max response, negative = inhibition, hits mostly inhibitors; 0.43% of 200,000 active; AID 1478; active means well fitted curve in the direction sought with a large enough effect; inconclusive means small, poorly fitted or top-dose-only effect, or another doubt; inactive means no such curve, though single readings can be large; an effect the other way counts as inactive or inconclusive;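 further: plate controls were neutral wells for no effect and buffer without enzyme for full effect; nearly all actives have a fitted effect of over 40% in size; top concentration of the series not given in the record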
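In this qHTS format, compounds are incubated with 1.5 nM cruzain for 15 min at room temperature before 2 uM Z-FR-AMC is added. Release of AMC is followed at 360/450 nm, and progress is taken as the 60 s fluorescence difference.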
Active calls of the source: *; ? = inconclusive; . = no result given; [ ] = remark or other dose. Unless noted, the call rests on the fitted dose curve; in most records, active means well fitted rising curve with a large enough effect; inconclusive means small, poorly fitted or top-dose-only effect; inactive means no such curve, though single readings can be large or run the other way. Potency means the concentration at half of the fitted maximal effect. Rows were taken by chance; 4.5% or so of the library scored in one or more.

SMILES	Marburg entry inh	SARS PLP yeast	Cruzain inh noDet	NS1 inh	Lassa entry inh	RE007 growth inh	StopGo reporter	Cruzain inh Det
COc1ccc(NC(=O)Cn2nnc(C(=O)NCc3cccs3)c2N)cc1Cl	.	-10%	.	2%	.	6%	-11%	.
O=C(CCN1C(=O)COc2ccccc21)NCCCN1CCN(c2ccc(F)cc2)CC1	11%	5%	-1%	-2%	18%	-9%	-16%	2.5%
COc1ccc(C(=O)Nc2ccc(OCc3ccccc3)cc2)cc1[N+](=O)[O-]	?	7%	-5%	-3%	-9%	1%[3.69 µM]	0%	2.6%
CN(CC(=O)Nc1ccccc1C(F)(F)F)C(=O)CC1OC(=O)c2ccccc21 (stereo not drawn)	13%	-1%	.	2%	-1%	7%	-20%	.
Cc1cc(C)n2c(SCC(O)=C(C#N)c3nc4ccccc4[nH]3)nnc2n1	-17%[46.1 µM]	.	.	.	7%[46.1 µM]	-20%	40%[activator]	.
CC(=O)Oc1ccc(-c2nc3ccccc3c(=O)o2)cc1	.	7%	.	17%	.	-19%	17%	.
CC1SCC(=O)N(CC(=O)NC2CCCCC2)C1=O (stereo not drawn)	23%	4%	.	.	19%	1%	1%	.
O=C(CCN1C(=O)c2ccccc2C1=O)N(CCO)Cc1ccccc1	-3%	-2%	0%	0%	.	.	-3%	6.2%
CC(/C=C/c1cccc([N+](=O)[O-])c1)=N\NC(=O)c1ccncc1	-39%	-23%	-15%	-5%	-2%	-15%	?	-11%
CCc1cccc(N=c2c([N+](=O)[O-])nn(-c3ccc(Cl)cc3)n2O)c1	?	?	-13%	-2%	29%[14.3 µM]	-9%	-27%	-8.3%

Five records picked at random from those above:
SMILES	Marburg entry inh	SARS PLP yeast	Cruzain inh noDet	NS1 inh	Lassa entry inh	RE007 growth inh	StopGo reporter	Cruzain inh Det
CC(/C=C/c1cccc([N+](=O)[O-])c1)=N\NC(=O)c1ccncc1	-39%	-23%	-15%	-5%	-2%	-15%	?	-11%
CN(CC(=O)Nc1ccccc1C(F)(F)F)C(=O)CC1OC(=O)c2ccccc21 (stereo not drawn)	13%	-1%	.	2%	-1%	7%	-20%	.
O=C(CCN1C(=O)c2ccccc2C1=O)N(CCO)Cc1ccccc1	-3%	-2%	0%	0%	.	.	-3%	6.2%
COc1ccc(C(=O)Nc2ccc(OCc3ccccc3)cc2)cc1[N+](=O)[O-]	?	7%	-5%	-3%	-9%	1%[3.69 µM]	0%	2.6%
O=C(CCN1C(=O)COc2ccccc21)NCCCN1CCN(c2ccc(F)cc2)CC1	11%	5%	-1%	-2%	18%	-9%	-16%	2.5%

The listing continues:
SMILES	Marburg entry inh	SARS PLP yeast	Cruzain inh noDet	NS1 inh	Lassa entry inh	RE007 growth inh	StopGo reporter	Cruzain inh Det
Cc1cccc(Cn2nnc3c(=O)[nH]c(C4CCN(C(=O)c5ccccc5F)CC4)nc32)c1	-1%[46.1 µM]	.	0%	.	-8%[46.1 µM]	.	-11%	-1.0%
COc1ccccc1C(=O)NCC(=O)N1CC=C(c2ccccc2)CC1	?	-7%	.	.	-22%	-21%	?	.
CCOc1ccc(-c2cc(C(=O)NN3CCN(C)CC3)c3cc(Cl)ccc3n2)cc1	.	-2%	-23%	12%	.	.	.	-4.7%
CCOc1ccc2oc(C(=O)Nc3ccc4c(c3)OCO4)c(C)c2c1	-30%[46.1 µM]	-11%	.	-6%	10%	-23%	12%	.
CCOC(=O)c1cc(-c2cccnc2)nn1-c1ccccc1	?	1%	.	-6%	-13%	0%	-23%	.
O=C(NCc1ccccc1)C(=O)NCC1OCCN1C(=O)c1cccs1 (stereo not drawn)	6%	-17%	8%	1%	-4%	-1%	-24%	5.8%
COc1cc(OC)c(NC(=O)Cn2c(=O)nc(-c3ccccc3)c3ccccc32)cc1Cl	0%[46.1 µM]	.	-10%	.	6%[46.1 µM]	.	-15%	-0.1%
CC12CC3CC(C)(C1)CC(CN)(C3)C2	?	-9%	-3%	0%	?	-12%	0%	-0.3%
CCOc1ccc(C(CC(=O)O)NC(=O)Cc2ccc(Cl)cc2)cc1 (stereo not drawn)	14%	0%	.	0%	4%	21%	1%	.
NC(=O)c1ccccc1NC(=O)c1cccc(C(=O)Nc2ccccc2C(N)=O)n1	?	.	.	.	?	-21%	-5%	.
Nc1c(C(=O)Nc2ccc3c(c2)OCCO3)nnn1Cc1cccc(Cl)c1	?	?	.	.	-8%	-4%	34%[activator]	.
COc1ccc(OC)c(N(CC(=O)N2CCCC2)S(=O)(=O)c2ccccc2)c1	-12%[46.1 µM]	5%	.	3%	15%[46.1 µM]	13%	35%[activator]	.
CCOC(=O)CSc1nnc(NC(=O)CN2CCCCC2)s1	?	0%	.	1%	25%[46.1 µM]	7%	-12%	.
O=C(O)CC(c1ccc(Cl)cc1)n1cccc1 (stereo not drawn)	-18%	1%	-2%	-6%	18%	-1%	-7%	1.5%
CCCCNC(=O)CSc1nc2cc3c(cc2c(=O)n1CCC(=O)NCCc1ccc(OC)c(OC)c1)OCO3	?	0%	.	.	?	-6%	-6%	.
COCCn1c(=N)c(C(=O)NCc2ccco2)cc2c(=O)n3ccccc3nc21	?	-1%	?	2%	-17%	-4%	-13%	-4.7%
COc1ccccc1NC(=O)CCSc1nnc(-c2ccco2)o1	-5%[46.1 µM]	0%	.	-6%	-1%	10%	-1%	.
O=C(O)c1cccc(NC(=S)NC(=O)c2ccncc2)c1	-24%[46.1 µM]	1%	.	.	?	-10%	-12%	.
Cn1nc(C(=O)Nc2cccc(S(=O)(=O)N3CCCCC3)c2)c2ccccc2c1=O	6.3µM*	-3%	.	.	-22%	8%	-16%	.
COc1cccc(-n2c(Cc3cc(=O)[nH]c(=O)[nH]3)nnc2SCC(=O)N2CCCC2)c1	-2%	-6%	-6%	4%	19%	16%	3%	-6.4%
CCn1cc(CNCc2ccc(OCC(O)CN(C)Cc3ccccc3)cc2)cn1 (stereo not drawn)	?	1%	.	2%	-30%	?	-14%	.
COCCNC(=O)CN(CCc1ccccc1)S(=O)(=O)c1ccc(OC)cc1	-13%	2%	2%	-8%	8%	-14%	27%	2.7%
COCCCNC(=O)c1ccc(N2CCCC2)c(NS(=O)(=O)c2ccc(C)cc2)c1	-25%	2%	?	-15%	3%	-2%	63%[activator]	-2.6%
Cn1nnc2cc(NC(=O)N3CCN(c4ccccn4)CC3)ccc21	17%	0%	5%	-3%	19%	-14%	.	-3.8%
O=C(O)CCC(=O)c1ccc2c(c1)OCCO2	.	-8%	-2%	?	.	-7%	-7%	-0.7%
CC(=O)Nc1sc2c(c1C(=O)N1CCOCC1)CCCCC2	?	4%	1%	-4%	14%	-5%	10%	0.4%
CC(=O)N1N=C(c2cccc(Br)c2)OC12CCCC2	-7%[46.1 µM]	-2%	.	.	.	-3%	?	.
O=C(O)[C@@H]1Cc2ccccc2N1	.	0%	.	4%	.	9%	0%	.
O=c1n(-c2ccccc2)c(=O)n2n1CCC2	14%	-4%	-8%	2%	22%	13%	2%	4.9%
O=C(CC1OC(=O)c2ccccc21)NCC1COc2ccccc2O1 (stereo not drawn)	3%	4%	.	.	-20%	-5%	-2%	.
CCn1c(SCC(=O)Nc2oc(-c3ccccc3)c(-c3ccccc3)c2C#N)nnc1-c1cc(OC)cc(OC)c1	16%	9%	7.9µM*	2%	-17%	-16%	-20%	4.7%
Cc1ccc(CC(NC(=O)c2ccccc2)C(=O)NCC(=O)O)cc1 (stereo not drawn)	9%	-7%	2%	4%	0%	-5%	-17%	4.1%
CC(=O)N(C)c1ccc(N=Cc2c(O)ccc3ccccc23)cc1	-18%[46.1 µM]	-2%	.	-5%	21%[46.1 µM]	-24%	-17%	.
Cc1cccc(NC(=O)C(=O)NCc2ccc3c(c2)OCO3)c1C	?	-1%	.	1%	.	1%	-13%	.
Cc1[nH]c(=O)[nH]c(=O)c1S(=O)(=O)N1CCN(c2ccccc2Cl)CC1	.	.	-7%	.	16%[46.1 µM]	.	8%	-1.1%
CCN(C(=O)COC(=O)/C=C/c1ccc(OC(F)F)c(OC)c1)C1CCS(=O)(=O)C1 (stereo not drawn)	26%	-3%	.	.	2%	11%	-7%	.
CCCCCCCCCCSc1n[nH]c(NC(C)=O)n1	-31%	-2%	?	-3%	?	-6%	-9%	2.4%
CN(C1CCCCC1)S(=O)(=O)c1ccc(NC(=S)NC(=O)c2cccs2)cc1	18µM*	?	?	13%	-12%	14%	?	0.8%
CCN(CC)S(=O)(=O)c1cccc(NC(=O)COc2ccc(C#N)cc2OC)c1	-6%	12%	1%	-17%	0%	-11%	?	-3.2%
CCCC(c1nnnn1CC(=O)OCC)N(Cc1cc2ccc(C)cc2[nH]c1=O)C1CCCC1 (stereo not drawn)	-6%[46.1 µM]	0%	15%	-30%	-17%	-2%	-23%	-3.0%
CCC(=O)NS(=O)(=O)c1ccc(N=NN2CCCCC2)cc1	0%	?	-15%	11%	-2%	0%	21%	-7.3%
Cc1ccc(C)c(S(=O)(=O)N2CCCC2CNC(=O)C(=O)NCCc2ccccc2)c1 (stereo not drawn)	?	-1%	.	.	-1%[46.1 µM]	-18%	-23%	.
C=CCNc1cnn(-c2ccc(C)cc2)c(=O)c1Sc1ccc(C)cc1	.	0%	.	-10%	.	1%	7%	.
COC(=O)Nc1nnc(-c2ccccc2Cl)s1	15%	-3%	6%	-80%	?	?	-6%	-0.8%
COC(=O)C1=C(C)N(CC2CCCO2)C(=O)C1 (stereo not drawn)	10%	10%	1%	-10%	2%	5%	0%	2.4%
CN(C)c1nc2c(c(=O)[nH]c(=O)n2C)n1Cc1ccccc1Br	15%	1%	9%	13%	3%	1%	-12%	1.2%
